Assay outcomes deposited in PubChem BioAssay by several laboratories.
BJeLR viability: MLPCN primary cell-based screen for lethality selective to Ras in HRASV12 cells. BJeLR (HRASV12) viability, CellTiter-Glo ATP luminescence, 48 h; reference of the scale not given here. inhibition, % (no concentration beside the values). 300,000 compounds, 0.17% hits. AID 1554, 2009;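 active = replicate mean above 50%; inconclusive = above 50% but judged a plate artefact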;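 also: 50 nL library stock added to about 25 µL; numbers are from one replicate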
Mtb hypoxia rep: PubChem AID 1159583; fluorescence inhibition, % (concentration not given with the values); 300,000 compounds, 0.1% hits; M. tuberculosis hypoxia-regulated fluorescent reporter, fluorescence;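 active = 35 to 45% if threefold the growth effect, above 45% if 1.5-fold the growth effect; inactive = the rest, general growth blockers included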;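 also: wells of about 50 µL received 100 nL stock; 0% = vehicle wells and 100% = reference inhibitor wells; whole bacteria with a GFP reporter of the hypoxia response; strong numbers were not always called active; many hits fall short of the cut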
Sa ugtP lethal: growth inhibition of ugtP-null S. aureus, primary screen, RN4220 ugtP deletion, OD600; 16 h; some inactives read as strong as hits; growth inhibition, % (test concentration not listed); 330,000 compounds, 0.54% hits;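 active = z-score under -3 and OD600 up to 0.15 on both plates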;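 also: plate controls were untreated wells for no effect and antibiotic for full effect; wells of about 80 µL received 100 nL stock; the first replicate is given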
Sa RN4220 lethal: growth inhibition of S. aureus RN4220, primary screen, OD600; 16 h; inhibition, % (test concentration not listed); 330,000 compounds, 0.33% hits; AID 1259311, 2017;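 active = z-score of -3 or lower and OD600 up to 0.18 on both plates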;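 also: plate controls were untreated cells for no effect and reference antibiotic for full effect; stock transfer was 100 nL into about 80 µL; one replicate is shown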
Autofluor counter: flagged as autofluorescent in microsphere protease counterscreen | 360,000 compounds, 3.1% hits | AID 624483 | compound autofluorescence counterscreen, microsphere flow cytometry; hits give high values | fluorescence intensity (concentration not given with the values);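 active = at least 3 SD above the mean of all compounds, about 16000 in these data; inconclusive = too few beads counted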;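 also: 100 nL of 1 mM stock went into each well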
PrP UTR inh: inhibition of PrP 5' UTR reporter expression; inhibition, % (concentration not given with the values); AID 488862, 2010; 340,000 compounds, 0.35% hits; cell-based PrP 5' UTR mRNA reporter, plate reader;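 active = every replicate at 50% or more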;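 also: 0 = median of the neutral control wells; tested in H4 reporter cells; numbers are from one replicate; inactives centre near -14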
Mtb hypoxia rep growth: second read-out of Mtb hypoxia rep, no call of its own (marks repeat the call); growth inhibition, %; measured here: M. tuberculosis growth (absorbance);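 0% = vehicle and 100% = reference antibiotic; read after six days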
Starred values were filed as active, the others as inactive; & = joins results of further samples.

Results for CC(=O)Oc1ccc(C(=O)Nc2cc(C)ccc2NC(=O)COc2ccccc2)cc1 ?
BJeLR viability: -14; Mtb hypoxia rep: 2; Sa ugtP lethal: -6; Sa RN4220 lethal: 0.7; Autofluor counter: 9087; Mtb hypoxia rep growth: 0

What do the screens show for `Cc1ccc(Cc2c(C)nc3nc(SCC(=O)NCc4ccco4)nn3c2C)cc1`?
BJeLR viability: 6; Mtb hypoxia rep: 5; Sa ugtP lethal: 14; Sa RN4220 lethal: -1.8; Autofluor counter: 5076; PrP UTR inh: -25; Mtb hypoxia rep growth: 9

What do the screens show for `OCc1nc2ccccc2n1CCCOc1ccc(Br)cc1`?
BJeLR viability: 1; Mtb hypoxia rep: 6; Sa ugtP lethal: -17; Sa RN4220 lethal: 5.8; Autofluor counter: inconclusive; PrP UTR inh: -32; Mtb hypoxia rep growth: 8

What do the screens show for `COc1ccc(NC(=O)Nc2ccc3c(c2)C(=O)N(C(C)CO)CC(C)C(CN(C)C(=O)Nc2ccc(OC)cc2)O3)cc1` (configuration not stated)?
Mtb hypoxia rep: 1; Sa ugtP lethal: -2; Sa RN4220 lethal: 0.6; Mtb hypoxia rep growth: 5

How did CN(CCC#N)C(=O)CSc1ncnc2sc(-c3ccccc3)cc12 do in these assays?
BJeLR viability: -8; Mtb hypoxia rep: 15; Sa ugtP lethal: -4; Sa RN4220 lethal: 5.0; Autofluor counter: 3546; PrP UTR inh: -17; Mtb hypoxia rep growth: 10

How did Cc1ccc(NC(=O)CN2CCC(Cc3ccccc3)CC2)cc1S(=O)(=O)N(C)C do in these assays?
BJeLR viability: 7; Mtb hypoxia rep: -1; Sa ugtP lethal: -1; Sa RN4220 lethal: 0.9; Autofluor counter: 3929; PrP UTR inh: -2; Mtb hypoxia rep growth: 0

How did CC(/C=C/c1ccccc1)=N\NC(=O)CSc1ccccn1 do in these assays?
BJeLR viability: -8; Autofluor counter: 11124; PrP UTR inh: -77

What do the screens show for `Cc1cc(Cl)ccc1NC(=O)CCC(=O)NN=Cc1cc([N+](=O)[O-])ccc1O`?
Mtb hypoxia rep: 6; Sa ugtP lethal: 4; Sa RN4220 lethal: 11; Mtb hypoxia rep growth: 4

Results for COc1ccc(/C=N\NC(=O)c2ccc(-c3ccccc3)cc2)cc1COC(C)=O ?
BJeLR viability: -10; Autofluor counter: 5581; PrP UTR inh: -17

What do the screens show for `O=C(COc1ccc2c3c(c(=O)oc2c1)CCCC3)N1C[C@H]2C[C@@H](C1)c1cccc(=O)n1C2`?
BJeLR viability: -4; Sa ugtP lethal: -15; Sa RN4220 lethal: -0.6; Autofluor counter: 5012; PrP UTR inh: -20

What do the screens show for `Cc1ccc(C)c(Cn2nnc3c(=O)[nH]c(C4CCCN(C(=O)C5CCC5)C4)nc32)c1` (configuration not stated)?
BJeLR viability: 1; Mtb hypoxia rep: 14; Sa ugtP lethal: 7; Sa RN4220 lethal: 4.8; Autofluor counter: 10915; Mtb hypoxia rep growth: 1

Results for Cc1ccc(-n2c(=O)[nH]c3ncccc3c2=O)cc1 ?
BJeLR viability: -1; Mtb hypoxia rep: 8; Sa ugtP lethal: 2; Sa RN4220 lethal: 0.3; Autofluor counter: 6755; PrP UTR inh: -28; Mtb hypoxia rep growth: 2

How did O=C(CCNC(=O)c1ccc(Cl)cc1)NCCCN1CCOCC1 do in these assays?
Mtb hypoxia rep: -1; Sa ugtP lethal: 6; Sa RN4220 lethal: 1.5; Autofluor counter: 8598; PrP UTR inh: -4; Mtb hypoxia rep growth: -2

What do the screens show for `Cc1ccc(O)c(NC2=C(Cl)C(=O)N(Cc3ccccc3)C2=O)c1`?
BJeLR viability: 5; Mtb hypoxia rep: 15; Sa ugtP lethal: -2; Sa RN4220 lethal: 10.0; Autofluor counter: 3199; PrP UTR inh: -10; Mtb hypoxia rep growth: 6

What do the screens show for `CCOc1ccc(C(=O)NCC(=O)NNC(=O)CN(C)S(=O)(=O)c2ccc(Cl)cc2)cc1`?
BJeLR viability: 17; Mtb hypoxia rep: 1; Sa ugtP lethal: 4; Sa RN4220 lethal: 1.4; Autofluor counter: 6059; PrP UTR inh: -7; Mtb hypoxia rep growth: 6

2 compounds picked at random from those above:
Results for Cc1ccc(-n2c(=O)[nH]c3ncccc3c2=O)cc1 ?
BJeLR viability: -1; Mtb hypoxia rep: 8; Sa ugtP lethal: 2; Sa RN4220 lethal: 0.3; Autofluor counter: 6755; PrP UTR inh: -28; Mtb hypoxia rep growth: 2

How did Cc1ccc(NC(=O)CN2CCC(Cc3ccccc3)CC2)cc1S(=O)(=O)N(C)C do in these assays?
BJeLR viability: 7; Mtb hypoxia rep: -1; Sa ugtP lethal: -1; Sa RN4220 lethal: 0.9; Autofluor counter: 3929; PrP UTR inh: -2; Mtb hypoxia rep growth: 0

(continued)
Results for COc1ccccc1CCNC(=O)C(=O)NCC1OCCN1C(=O)c1ccc(Cl)cc1 (configuration not stated) ?
BJeLR viability: 2; Mtb hypoxia rep: 2; Sa ugtP lethal: 19; Sa RN4220 lethal: 7.1; Autofluor counter: 5567; PrP UTR inh: -24; Mtb hypoxia rep growth: -2

What do the screens show for `Cc1ccc(-n2nc(C)c(Sc3ccccc3[N+](=O)[O-])c2N)cc1`?
BJeLR viability: -7; Mtb hypoxia rep: -10; Sa ugtP lethal: 32; Sa RN4220 lethal: -4.6; Autofluor counter: 2536; PrP UTR inh: 1; Mtb hypoxia rep growth: 10

How did COc1ccc(Nc2nc(C)nc3c2nnn3Cc2ccccc2)cc1OC do in these assays?
BJeLR viability: 0; Mtb hypoxia rep: 5; Sa ugtP lethal: -6; Sa RN4220 lethal: -5.8; PrP UTR inh: -19; Mtb hypoxia rep growth: 7

How did COc1ccc(CC(=O)N2CCN(C)CC2)cc1 do in these assays?
BJeLR viability: -5; Mtb hypoxia rep: -4; Sa ugtP lethal: 0; Sa RN4220 lethal: -1.0; Autofluor counter: 16186*; PrP UTR inh: -2; Mtb hypoxia rep growth: -5

How did O=C(O)C1=CC(c2ccc3c(c2)OCO3)CC(OCCCCO)O1 (configuration not stated) do in these assays?
Mtb hypoxia rep: -4&11; Sa ugtP lethal: -3&-3; Sa RN4220 lethal: 0.2&4.0; Mtb hypoxia rep growth: -6&2

How did C[C@]12CCC3C(CC[C@H]4CC(O)CC[C@]34C)C1CCC2=NO (some centres not stated) do in these assays?
Mtb hypoxia rep: -6; Sa ugtP lethal: 16; Sa RN4220 lethal: 0.8; Mtb hypoxia rep growth: -6

What do the screens show for `Cc1nc(SCC(=O)NCCc2ccccc2)c2oc3ccccc3c2n1`?
BJeLR viability: -7; Mtb hypoxia rep: 9; Sa ugtP lethal: 3; Sa RN4220 lethal: 14; Autofluor counter: 16266*; PrP UTR inh: -13; Mtb hypoxia rep growth: 1

What do the screens show for `O=C(Nc1ccnn1C1CCN(Cc2ccccc2OCCO)CC1)c1cccc(F)c1`?
BJeLR viability: -6; Mtb hypoxia rep: 4; Sa ugtP lethal: 6; Sa RN4220 lethal: 1.3; Autofluor counter: inconclusive; PrP UTR inh: -8; Mtb hypoxia rep growth: 13

Results for CCOc1ccc(Br)cc1S(=O)(=O)Nc1ccc(NC(=O)c2ccccc2C)cc1 ?
BJeLR viability: 5; Mtb hypoxia rep: -5; Sa ugtP lethal: -10; Sa RN4220 lethal: -7.8; Autofluor counter: 2564; PrP UTR inh: -19; Mtb hypoxia rep growth: -3

Results for CCOC(=O)Cc1csc(SCC(=O)Nc2nccs2)n1 ?
BJeLR viability: 8; Mtb hypoxia rep: 1; Sa ugtP lethal: 1; Sa RN4220 lethal: 0.8; Autofluor counter: inconclusive; PrP UTR inh: -1; Mtb hypoxia rep growth: 5

How did CC(C)(C)c1ccc(SCCc2ccncc2)cc1 do in these assays?
BJeLR viability: 22; Mtb hypoxia rep: 9; Sa ugtP lethal: 43; Sa RN4220 lethal: 8.5; Autofluor counter: 3910; PrP UTR inh: -18; Mtb hypoxia rep growth: 14

Results for CC(=O)Nc1ccc(NC(=S)NC(=O)/C=C/c2ccc(Cl)cc2)cc1 ?
BJeLR viability: -14; Mtb hypoxia rep: -5; Sa ugtP lethal: -6; Sa RN4220 lethal: -2.1; Autofluor counter: 4029; PrP UTR inh: -20; Mtb hypoxia rep growth: 11

What do the screens show for `Cc1ccc(NC(=O)CSc2nc(N)cc(=O)[nH]2)cc1S(=O)(=O)N1CCCCC1`?
Mtb hypoxia rep: 2; Sa ugtP lethal: -4; Sa RN4220 lethal: 0.3; Autofluor counter: 3831; PrP UTR inh: -7; Mtb hypoxia rep growth: 7

How did CCNC(=S)N/N=C/c1cn(Cc2ccccc2F)c2ccccc12 do in these assays?
BJeLR viability: -18; Autofluor counter: 2480; PrP UTR inh: -12

How did COc1ccc(S(=O)(=O)NCCCN2CCCC2=O)cc1OC do in these assays?
BJeLR viability: 9; Mtb hypoxia rep: -8; Sa ugtP lethal: 7; Sa RN4220 lethal: 4.2; Autofluor counter: 4403; PrP UTR inh: 15; Mtb hypoxia rep growth: -6

How did O=C(CC1CC2CCC1C2)NC1CCCCCCC1 (configuration not stated) do in these assays?
BJeLR viability: 8; Sa ugtP lethal: 4; Sa RN4220 lethal: 3.8; Autofluor counter: 3912; PrP UTR inh: -38

How did O=C(O)c1cnc(-c2ccccc2)nc1Sc1ccc(Cl)cc1 do in these assays?
BJeLR viability: 2; Mtb hypoxia rep: 9; Sa ugtP lethal: -22; Sa RN4220 lethal: -15; Autofluor counter: 7103; PrP UTR inh: -35; Mtb hypoxia rep growth: 0

Results for CC1CCCN(C(=O)C2COc3ccccc3O2)C1 (configuration not stated) ?
BJeLR viability: 1; Sa ugtP lethal: 2; Sa RN4220 lethal: 1.2; Autofluor counter: 4928; PrP UTR inh: -9

How did COc1ccc(NC(=O)C2CCN(C(=O)c3ccccc3)CC2)c(OC)c1 do in these assays?
Mtb hypoxia rep: 6; Sa ugtP lethal: 4; Sa RN4220 lethal: 2.3; Autofluor counter: 8888; PrP UTR inh: -13; Mtb hypoxia rep growth: -2

What do the screens show for `CN(C(=O)c1ccc(NC(=O)Cc2ccc(NC(=O)C3CCN(S(=O)(=O)c4cccc([N+](=O)[O-])c4)CC3)cc2)cc1)C1CCCC1`?
Mtb hypoxia rep: -3; Sa ugtP lethal: 1; Sa RN4220 lethal: 4.3; Autofluor counter: 2950; PrP UTR inh: -10; Mtb hypoxia rep growth: 7

Results for COc1ccc(-c2cc(C(=O)NCc3cccnc3)no2)cc1 ?
BJeLR viability: 3; Mtb hypoxia rep: 11; Sa ugtP lethal: 6; Sa RN4220 lethal: 6.4; Autofluor counter: 8292; PrP UTR inh: -11; Mtb hypoxia rep growth: 6

Results for CO/N=C(\C)c1ncc(C(F)(F)F)cc1N1CCOCC1 ?
BJeLR viability: 5; Autofluor counter: 2805; PrP UTR inh: -9

Results for CC(C)Cc1nc(Cl)c(C#N)c2c1CCC2 ?
BJeLR viability: -7; Mtb hypoxia rep: 3; Sa ugtP lethal: 9; Sa RN4220 lethal: 4.7; Autofluor counter: 3835; PrP UTR inh: -4; Mtb hypoxia rep growth: 3

What do the screens show for `CCCn1c(=O)c2ccccc2n2c(SCCOc3ccc(Cl)cc3)nnc12`?
BJeLR viability: 5; Mtb hypoxia rep: 1; Sa ugtP lethal: 12; Sa RN4220 lethal: 1.9; Autofluor counter: 10320; PrP UTR inh: -23; Mtb hypoxia rep growth: -4

What do the screens show for `Cc1cc(NC(=O)CCNS(=O)(=O)c2cc(Br)cnc2N)ccc1Br`?
BJeLR viability: -3; Mtb hypoxia rep: -5; Sa ugtP lethal: -32; Sa RN4220 lethal: 1.8; Autofluor counter: 9834; PrP UTR inh: -3; Mtb hypoxia rep growth: 7

How did CCOC(=O)c1ccc(N2CCN(c3ccc(F)cc3)CC2)c(NC(=O)Nc2cccc(OC)c2)c1 do in these assays?
BJeLR viability: 5; Mtb hypoxia rep: 1; Sa ugtP lethal: 14; Sa RN4220 lethal: 1.5; Autofluor counter: 2183; PrP UTR inh: -12; Mtb hypoxia rep growth: 2

How did CC1CN(C(C)CO)C(=O)c2cccc(NC(=O)C3CC3)c2OC1CN(C)Cc1ccc(-c2ccccc2)cc1 (configuration not stated) do in these assays?
Mtb hypoxia rep: 4; Sa ugtP lethal: -15; Sa RN4220 lethal: 18; Mtb hypoxia rep growth: 8

What do the screens show for `COc1ccc(N(CCN2C(=O)c3ccccc3C2=O)C(=O)c2cccc([N+](=O)[O-])c2)cc1`?
BJeLR viability: -3; Mtb hypoxia rep: 10; Sa ugtP lethal: 8; Sa RN4220 lethal: 2.4; Autofluor counter: 2332; PrP UTR inh: -10; Mtb hypoxia rep growth: -6

Random draw from the library (roughly 4% active in at least one column).
